Source: PubChem
Vaccinia inh – Vaccinia orthopox stage-specific inhibition; Vaccinia-infected cells, mCherry/Venus stage reporter fluorescence; stronger effect = lower value; some inactives read as strong as hits; activity change (mCherry), % (test concentration not listed); 89,000 compounds, 0.01% hits;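 active = mCherry past -33% and 40 or more points under the early reporter, replicates agreeing; inconclusive = past -33% without that gap or agreement; tested in A549 cells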;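 also: scaled between vehicle wells and reference inhibitor wells; 23 nL library stock went into each well; one replicate is shown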
Vaccinia inh Venus – also measured in Vaccinia inh; calls as there; activity change (Venus), %; measured here: Venus reporter, other viral stage;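 negative = less Venus signal; first of two replicates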
Numbers without * were called inactive. A portion of the library (hit frequency here may not be typical).

CCCN(C)C[C@@H]1Oc2cc(/C=C/c3ccccc3)ccc2S(=O)(=O)N([C@@H](C)CO)C[C@H]1C was read as Vaccinia inh 10 and Vaccinia inh Venus 12.
Screening C[C@@H]1CN([C@H](C)CO)C(=O)c2cc(C#Cc3ccccc3F)cnc2O[C@H]1CN(C)S(=O)(=O)c1ccccc1F returned Vaccinia inh -15 and Vaccinia inh Venus -8.
Screening O=C(NCC1CC1)[C@@H]1[C@@H](CO)[C@@H]2Cn3c(ccc(C4=CCCCC4)c3=O)[C@@H]2N1Cc1ccccc1F returned Vaccinia inh -9 and Vaccinia inh Venus -6.
Cc1ccc(S(=O)(=O)Nc2ccc3c(c2)C(=O)N([C@@H](C)CO)C[C@@H](C)[C@@H](CN(C)S(=O)(=O)c2ccc(C)cc2)OCCCC[C@@H](C)O3)cc1 was read as Vaccinia inh -9 and Vaccinia inh Venus -1.
C[C@@H]1CN([C@@H](C)CO)C(=O)Cc2cc(NC(=O)Nc3ccc(F)cc3)ccc2O[C@H]1CN(C)Cc1ccc2c(c1)OCO2 was read as Vaccinia inh -33 and Vaccinia inh Venus -30.
For C[C@@H]1CN([C@@H](C)CO)C(=O)c2cc(NC(=O)CCC(F)(F)F)ccc2O[C@@H](C)CCCCO[C@@H]1CN(C)C(=O)CCCN(C)C the results were Vaccinia inh 19 and Vaccinia inh Venus 9.
For Cc1ccc(S(=O)(=O)N(C)C[C@H]2Oc3ccc(NC(=O)Nc4ccc5c(c4)OCO5)cc3CC(=O)N([C@H](C)CO)C[C@H]2C)cc1 the results were Vaccinia inh -15 and Vaccinia inh Venus -3.
Screening C[C@H](CO)N1C[C@H](C)[C@@H](CN(C)Cc2ccccc2F)Oc2ncc(C3=CCCCC3)cc2C1=O returned Vaccinia inh inconclusive.
`Cc1ccc(S(=O)(=O)N(C)C[C@H]2OCCCC[C@H](C)Oc3ccc(NS(=O)(=O)c4cccs4)cc3C(=O)N([C@@H](C)CO)C[C@@H]2C)cc1` gave Vaccinia inh inconclusive.
`C[C@H]1CCCCO[C@H](CN(C)C(=O)C2CCCCC2)[C@@H](C)CN([C@@H](C)CO)C(=O)c2cc(NS(=O)(=O)c3cn(C)cn3)ccc2O1` gave Vaccinia inh 13 and Vaccinia inh Venus 9.
COc1ccccc1CNC(=O)C[C@H]1CC[C@H](NC(=O)CN(C)C)[C@@H](CO)O1 was read as Vaccinia inh 2 and Vaccinia inh Venus 5.
`C[C@H](CO)N1C[C@H](C)[C@H](CN(C)C(=O)NC2CCCCC2)Oc2c(NC(=O)Nc3ccc(F)cc3)cccc2C1=O` gave Vaccinia inh inconclusive.
Screening O=C(C[C@H]1CC[C@H](NC(=O)c2ccncc2)[C@@H](CO)O1)Nc1ccccc1 returned Vaccinia inh 8 and Vaccinia inh Venus 16.
For COc1cccc(S(=O)(=O)Nc2ccc3c(c2)[C@@H]2C[C@H](CC(=O)N[C@@H](C)c4ccccc4)O[C@H](CO)[C@@H]2O3)c1 the results were Vaccinia inh -9 and Vaccinia inh Venus -15.
For C[C@@H]1CCCCO[C@@H](CN(C)C(=O)NC2CCCCC2)[C@H](C)CN([C@@H](C)CO)C(=O)c2cc(NS(=O)(=O)c3ccc(Cl)cc3)ccc2O1 the results were Vaccinia inh inconclusive.

A run of entries of the results above, for reference:
Screening O=C(C[C@H]1CC[C@H](NC(=O)c2ccncc2)[C@@H](CO)O1)Nc1ccccc1 returned Vaccinia inh 8 and Vaccinia inh Venus 16.
For COc1cccc(S(=O)(=O)Nc2ccc3c(c2)[C@@H]2C[C@H](CC(=O)N[C@@H](C)c4ccccc4)O[C@H](CO)[C@@H]2O3)c1 the results were Vaccinia inh -9 and Vaccinia inh Venus -15.
For C[C@@H]1CCCCO[C@@H](CN(C)C(=O)NC2CCCCC2)[C@H](C)CN([C@@H](C)CO)C(=O)c2cc(NS(=O)(=O)c3ccc(Cl)cc3)ccc2O1 the results were Vaccinia inh inconclusive.

Going on with the list.
`C[C@H](CO)N1C[C@H](C)[C@@H](CN(C)Cc2ccncc2)Oc2ccc(NC(=O)Nc3ccc(F)cc3)cc2CC1=O` gave Vaccinia inh -10 and Vaccinia inh Venus 0.
Cc1noc(C)c1S(=O)(=O)Nc1ccc2c(c1)CC(=O)N([C@@H](C)CO)C[C@H](C)[C@H](CN(C)S(=O)(=O)c1cccs1)O2 was read as Vaccinia inh 5 and Vaccinia inh Venus -4.
For C[C@@H]1CN([C@@H](C)CO)C(=O)Cc2cc(NC(=O)NC3CCCCC3)ccc2O[C@@H]1CN(C)Cc1ccncc1 the results were Vaccinia inh -14 and Vaccinia inh Venus -8.
`COc1ccc(CN(C)C[C@H]2Oc3c(NC(=O)c4nc5ccccc5s4)cccc3C(=O)N([C@H](C)CO)C[C@@H]2C)cc1` gave Vaccinia inh -21 and Vaccinia inh Venus -21.
For COc1ccc(NC(=O)N(C)C[C@@H]2Oc3cc(-c4ccc(C)cc4)ccc3S(=O)(=O)N([C@@H](C)CO)C[C@@H]2C)cc1 the results were Vaccinia inh inconclusive.
C[C@H]1CN([C@@H](C)CO)C(=O)c2cc(Br)cnc2O[C@@H]1CN(C)C(=O)c1cccnc1 was read as Vaccinia inh 9 and Vaccinia inh Venus 0.
Screening COc1ccc(S(=O)(=O)N(C)C[C@@H]2Oc3ccc(NC(=O)Cc4cn(C)c5ccccc45)cc3C(=O)N([C@@H](C)CO)C[C@@H]2C)cc1 returned Vaccinia inh -11 and Vaccinia inh Venus -6.
Screening CC(C)NC(=O)Nc1ccc2c(c1)C(=O)N(C)[C@H]1CC[C@@H](CC(=O)NCC3CCCCC3)O[C@@H]1CO2 returned Vaccinia inh -5 and Vaccinia inh Venus -9.
For N#C[C@@H]1[C@H](c2ccccc2-c2ccccc2)[C@H](CO)N1c1ncc(-c2ccccc2)s1 the results were Vaccinia inh 25 and Vaccinia inh Venus 16.
For CO[C@@H]1CN(C)C(=O)c2ccc(NC(=O)c3cnccn3)cc2OC[C@H](C)N(CC2CC2)C[C@@H]1C the results were Vaccinia inh 6 and Vaccinia inh Venus 16.
Screening CCCN1C[C@@H](C)[C@H](OC)CN(C)C(=O)c2ccc(NC(=O)C3CCC3)cc2OC[C@@H]1C returned Vaccinia inh -3 and Vaccinia inh Venus 9.
Screening COc1ccc2c3c(n(C)c2c1)[C@@H](CO)N(Cc1ccc2c(c1)OCO2)CC31CN(C(=O)c2ccc3c(c2)OCO3)C1 returned Vaccinia inh 15 and Vaccinia inh Venus 6.
Screening CCCC(=O)Nc1ccc2c(c1)C(=O)N(C)C[C@H](OC)[C@H](C)CN(C(=O)C1CCCC1)[C@H](C)CO2 returned Vaccinia inh -4 and Vaccinia inh Venus -8.
`C[C@@H]1CN([C@H](C)CO)S(=O)(=O)c2ccc(-c3ccncc3)cc2O[C@H]1CN(C)C(=O)CN(C)C` gave Vaccinia inh 11 and Vaccinia inh Venus 11.
For C[C@@H]1CN([C@@H](C)CO)C(=O)c2cc(NC(=O)Nc3cccc4ccccc34)ccc2O[C@@H]1CN(C)C(=O)Nc1ccc(F)cc1 the results were Vaccinia inh 16 and Vaccinia inh Venus 14.
COc1ccc(S(=O)(=O)Nc2ccc3c(c2)C(=O)N([C@H](C)CO)C[C@@H](C)[C@@H](CN(C)S(C)(=O)=O)OCCCC[C@H](C)O3)cc1 was read as Vaccinia inh 4 and Vaccinia inh Venus 1.
`O=C(c1cnccn1)N1CC[C@@H]2[C@@H](CO)Nc3ccc(C#Cc4cccnc4)cc3[C@@H]21` gave Vaccinia inh 15 and Vaccinia inh Venus 15.
For COc1ccc(C2CC(=O)Oc3ccc(C(C)(C)C)cc32)cc1 (stereo not drawn) the results were Vaccinia inh 22 and Vaccinia inh Venus 5.
Screening Cc1ccc(S(=O)(=O)N(C)C[C@H]2Oc3c(NC(=O)Nc4ccc(F)cc4)cccc3C(=O)N([C@@H](C)CO)C[C@@H]2C)cc1 returned Vaccinia inh -19 and Vaccinia inh Venus -6.
Cn1cnc(S(=O)(=O)N2C[C@@H](O)COC[C@@H]3O[C@@H](CC(=O)NC4Cc5ccccc5C4)CC[C@H]32)c1 was read as Vaccinia inh 26 and Vaccinia inh Venus 24.
For CC(C)NC(=O)Nc1cccc2c1O[C@@H](CN(C)Cc1ccc(Cl)c(Cl)c1)[C@@H](C)CN([C@H](C)CO)C2=O the results were Vaccinia inh inconclusive.
CCCNC(=O)C[C@@H]1CC[C@H]2[C@@H](COc3ccc(NC(=O)CC)cc3C(=O)N2C)O1 was read as Vaccinia inh -5 and Vaccinia inh Venus 4.
For CO[C@@H]1CN(C)C(=O)c2ccc(NS(C)(=O)=O)cc2OC[C@@H](C)N(Cc2cncnc2)C[C@H]1C the results were Vaccinia inh 10 and Vaccinia inh Venus 11.
`C[C@@H]1CN([C@@H](C)CO)C(=O)CCCn2nncc2CO[C@@H]1CN(C)Cc1ccc(O)cc1` gave Vaccinia inh 22 and Vaccinia inh Venus 15.
For CNC[C@@H]1Oc2ccc(NS(=O)(=O)c3ccc(C)cc3)cc2C(=O)N([C@H](C)CO)C[C@H]1C the results were Vaccinia inh 13 and Vaccinia inh Venus 4.
`CNC[C@H]1OCCCC[C@@H](C)Oc2ccc(NC(=O)Cc3ccccc3)cc2C(=O)N([C@@H](C)CO)C[C@H]1C` gave Vaccinia inh -8 and Vaccinia inh Venus -3.
COc1ccccc1-c1cnc2c(c1)C(=O)N([C@@H](C)CO)C[C@@H](C)[C@@H](CN(C)CC1CCOCC1)O2 was read as Vaccinia inh -6 and Vaccinia inh Venus -17.
For C[C@@H]1CCCCO[C@@H](CN(C)S(C)(=O)=O)[C@@H](C)CN([C@H](C)CO)C(=O)c2cc(NC(=O)Nc3cccc4ccccc34)ccc2O1 the results were Vaccinia inh 8 and Vaccinia inh Venus 8.
Screening CNC[C@H]1Oc2ccc(N)cc2C(=O)N([C@H](C)CO)C[C@@H]1C returned Vaccinia inh 9 and Vaccinia inh Venus 14.
Cc1noc(C)c1NC(=O)Nc1ccc2c(c1)CC(=O)N([C@@H](C)CO)C[C@H](C)[C@H](CN(C)Cc1ccc(C(=O)O)cc1)O2 was read as Vaccinia inh -2 and Vaccinia inh Venus 4.

Continued, starting with the last 4 of the part before.
COc1ccccc1-c1cnc2c(c1)C(=O)N([C@@H](C)CO)C[C@@H](C)[C@@H](CN(C)CC1CCOCC1)O2 was read as Vaccinia inh -6 and Vaccinia inh Venus -17.
For C[C@@H]1CCCCO[C@@H](CN(C)S(C)(=O)=O)[C@@H](C)CN([C@H](C)CO)C(=O)c2cc(NC(=O)Nc3cccc4ccccc34)ccc2O1 the results were Vaccinia inh 8 and Vaccinia inh Venus 8.
Screening CNC[C@H]1Oc2ccc(N)cc2C(=O)N([C@H](C)CO)C[C@@H]1C returned Vaccinia inh 9 and Vaccinia inh Venus 14.
Cc1noc(C)c1NC(=O)Nc1ccc2c(c1)CC(=O)N([C@@H](C)CO)C[C@H](C)[C@H](CN(C)Cc1ccc(C(=O)O)cc1)O2 was read as Vaccinia inh -2 and Vaccinia inh Venus 4.
O=C(C[C@@H]1C=C[C@@H](NS(=O)(=O)c2ccc(F)cc2)[C@H](CO)O1)NCc1ccccc1F was read as Vaccinia inh 2 and Vaccinia inh Venus -6.
For O=C(C[C@H]1C=C[C@@H](NC(=O)Nc2ccccc2F)[C@H](CO)O1)NCc1ccccc1 the results were Vaccinia inh 27 and Vaccinia inh Venus 27.
`O=C(C1CCC1)N1CC(=O)N2[C@H](C1)[C@@H](c1ccc(-c3ccccc3F)cc1)[C@@H]2CO` gave Vaccinia inh -35 and Vaccinia inh Venus -26.
CO[C@H]1CN(C)C(=O)c2cc(NC(=O)C3CCOCC3)ccc2OC[C@@H](C)N(Cc2nccs2)C[C@@H]1C was read as Vaccinia inh 7 and Vaccinia inh Venus 5.
For COc1ccc(S(=O)(=O)N(C)C[C@H]2Oc3c(NC(=O)Nc4cccc5ccccc45)cccc3C(=O)N([C@@H](C)CO)C[C@@H]2C)cc1 the results were Vaccinia inh 2 and Vaccinia inh Venus 2.
C[C@@H]1CN([C@H](C)CO)C(=O)c2cc(NC(=O)C3CCCCC3)ccc2O[C@@H](C)CCCCO[C@@H]1CN(C)Cc1ccncc1 was read as Vaccinia inh -11 and Vaccinia inh Venus -4.
For COCCNC(=O)C[C@@H]1C=C[C@@H](NS(=O)(=O)c2ccc(C)cc2)[C@@H](CO)O1 the results were Vaccinia inh -2 and Vaccinia inh Venus 2.
COC(=O)[C@H]1[C@H](CO)[C@H]2Cn3c(ccc(-c4ccncc4)c3=O)[C@@H]1N2S(=O)(=O)c1ccccc1F was read as Vaccinia inh 12 and Vaccinia inh Venus 11.
For Cc1ccc(S(=O)(=O)Nc2cccc3c2O[C@H](CN(C)Cc2ccc(Cl)c(Cl)c2)[C@@H](C)CN([C@H](C)CO)C3=O)cc1 the results were Vaccinia inh -31 and Vaccinia inh Venus -23.
COc1ccccc1S(=O)(=O)N[C@H]1C=C[C@H](CC(=O)N2CCOCC2)O[C@H]1CO was read as Vaccinia inh 7 and Vaccinia inh Venus 7.
`O=C(C[C@@H]1CC[C@H](NC(=O)c2ccncc2)[C@@H](CO)O1)NCC1CCCCC1` gave Vaccinia inh 3 and Vaccinia inh Venus 5.
For C[C@@H]1CN([C@@H](C)CO)S(=O)(=O)c2ccc(Br)cc2O[C@H]1CN(C)CC1CCCC1 the results were Vaccinia inh -23 and Vaccinia inh Venus -30.
`O=C(C1CCC1)N1CC(=O)N2[C@H](C1)[C@@H](c1ccc(C#Cc3cccc(F)c3)cc1)[C@@H]2CO` gave Vaccinia inh inconclusive.
C[C@@H]1CN([C@H](C)CO)C(=O)Cc2cc(NC(=O)c3ccncc3)ccc2O[C@@H]1CN(C)S(C)(=O)=O was read as Vaccinia inh 3 and Vaccinia inh Venus -4.
`C[C@@H]1CN([C@H](C)CO)S(=O)(=O)c2ccc(C3=CCCC3)cc2O[C@H]1CN(C)C(=O)c1ccncc1` gave Vaccinia inh 12 and Vaccinia inh Venus 7.
For COc1cccc(CN2[C@H](CO)[C@@H](c3ccccc3)C23CN(C(=O)C2CCOCC2)C3)c1 the results were Vaccinia inh 10 and Vaccinia inh Venus 10.
